FGF22 binding: shifts melting point of recombinant human FGF22. Q9HCT0. recombinant FGF22 thermal shift, SYPRO orange fluorescence; percent of sucrose octasulfate shift, DMSO zero. calls only at 9.99 µM. 340,000 tested, 1.5% active;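 active = melting point raised past a set limit in the mean and every replicate; inconclusive = no clear call; three in four hits are not shown here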
Target sequence (Q9HCT0 whole entry, looked up): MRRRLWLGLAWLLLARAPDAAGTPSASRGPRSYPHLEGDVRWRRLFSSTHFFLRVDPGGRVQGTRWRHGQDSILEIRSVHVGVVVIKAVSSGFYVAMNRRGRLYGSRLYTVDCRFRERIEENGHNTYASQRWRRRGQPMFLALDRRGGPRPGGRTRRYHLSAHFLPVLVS
ALR H2O2 inh: blocks human ALR sulfhydryl oxidase activity; 290,000 tested, 3.8% active; inhibition, % (no concentration beside the values); purified ALR, DTT oxidation, H2O2 HRP-luminol luminescence; AID 485317;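 active = mean and each replicate at 75% or more; inconclusive = only one of the two met; inactive = neither met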;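 also: stock transfer was 7.5 nL into about 7.5 µL; 0% = neutral wells and 100% = wells with inactivated enzyme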
Target sequence (P55789 whole entry, looked up): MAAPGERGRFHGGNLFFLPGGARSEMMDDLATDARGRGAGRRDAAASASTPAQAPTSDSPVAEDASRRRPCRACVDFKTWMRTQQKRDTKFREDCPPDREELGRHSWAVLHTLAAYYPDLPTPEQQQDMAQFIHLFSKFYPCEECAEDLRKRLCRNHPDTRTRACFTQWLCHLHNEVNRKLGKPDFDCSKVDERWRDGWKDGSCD
HNF4A DNA FP: change in binding of human HNF4 alpha to DNA. P41235. HNF4a-FITC DNA binding, fluorescence polarization, 1 h. activity change, % at 10 µM. 360,000 tested, 0.3% active; in the data active = activity change above about 30%, passing the limit was not always enough;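 also: controls were the assay level and a saturating level of protein; the project sought stronger binding though the title names inhibitors; some compounds called inactive have numbers as strong as hits; positive values seem to mean higher polarization but the record does not say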
Target sequence (P41235 whole entry, looked up): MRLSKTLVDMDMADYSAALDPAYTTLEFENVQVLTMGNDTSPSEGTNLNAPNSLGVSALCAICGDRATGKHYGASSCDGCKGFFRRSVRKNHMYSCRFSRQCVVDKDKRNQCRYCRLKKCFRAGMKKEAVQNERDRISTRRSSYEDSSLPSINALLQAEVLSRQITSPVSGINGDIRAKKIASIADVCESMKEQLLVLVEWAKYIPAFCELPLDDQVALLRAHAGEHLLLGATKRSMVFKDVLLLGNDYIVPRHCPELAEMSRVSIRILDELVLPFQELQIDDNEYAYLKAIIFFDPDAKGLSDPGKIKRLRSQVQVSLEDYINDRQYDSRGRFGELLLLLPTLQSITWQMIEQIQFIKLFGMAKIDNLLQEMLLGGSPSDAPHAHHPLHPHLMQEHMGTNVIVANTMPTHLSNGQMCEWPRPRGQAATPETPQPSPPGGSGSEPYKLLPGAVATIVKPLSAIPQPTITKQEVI
Ecoli rRNA inh: inhibitors of bacterial rRNA selective over humanized ribosomes | GFP signal change (wild-type ribosome), % (no concentration beside the values) | 350,000 tested, 1.6% active | E. coli WT GFP vs humanized-ribosome RFP mutants, fluorescence, 24 h; hits give low values; DMSO median 0, no signal -100 | AID 720706;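 active = significant combined selectivity score with lowered wild-type GFP, culture density cut under 30%, mutant RFP and density less affected; inactive = any of these conditions unmet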; also: one replicate is shown; some compounds called inactive have numbers as strong as hits
AF4-AF9 inh: inhibitors of human MLL-AF4/AF9 interaction; P42568; AlphaScreen, biotin-AF4 peptide binding to FLAG-AF9; inhibition, % at 10 µM; 350,000 tested, 0.47% active; AID 651704;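 active = every replicate reaching a set inhibition limit, whatever the replicate mean, cut at about 25% in these data; inconclusive = mean inhibition reaches that limit but some replicates miss it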;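 also: 0% = plate neutral control median and 100% = total signal loss; the record names both 10 and 1 µM as test concentration; the first replicate is given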
Ecoli growth: blocks Escherichia coli growth; 330,000 tested, 0.21% active; OD600 absorbance (no concentration beside the values); OD600, 23 h; hits give low values; AID 1053175;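 active = OD600 absorbance below the run mean of sample wells minus 3.6 SD, in any replicate, cut at about 0.56 in these data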;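 also: stock transfer was 300 nL into about 60 µL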
Vif TR-FRET: HIV-1 Vif–A3G interaction blockers – biochemical, TR-FRET, GST-Vif 1-94, biotin-A3G peptide, dose response retest, primary screen (AID 1117319) | 260,000 tested, 0.57% active | inhibition, %, or IC50 in µM where a hit was titrated | TR-FRET GST-Vif / biotin-A3G peptide binding; higher % means a stronger effect; test concentration not given here; strong numbers were not always called active;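 active = above the screen mean plus three standard deviations and confirmed in dose response; inconclusive = results disagree or hit not tested in dose response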;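 also: Vif residues 1-94 fused to GST binding biotinylated APOBEC3G peptide 110-148; 0% = full assay without inhibitor and 100% = GST in place of GST-Vif; retest series ran down from 100 µM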
Ecoli rRNA inh OD600: second read-out of Ecoli rRNA inh, no call of its own (marks repeat the call); OD600 change, %; measured here: OD600 growth;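 optical density of the mix in the first replicate; 0 = DMSO median and -100 = no signal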
Ecoli rRNA inh RFP: further read-out of Ecoli rRNA inh, marked with its call; RFP signal change, %; measured here: RFP humanized mutant strains;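 first replicate; 0 = DMSO median and -100 = no signal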
* = called active by the depositor; i = inactive; ? = inconclusive; . = no result given; & = joins results of further samples. Not all compounds are listed (hit frequency here may not be typical).

SMILES	FGF22 binding	ALR H2O2 inh	HNF4A DNA FP	Ecoli rRNA inh	Ecoli rRNA inh OD600	Ecoli rRNA inh RFP	AF4-AF9 inh	Ecoli growth	Vif TR-FRET
Cc1ccc2c(c1)c1ncnc(N3CCOCC3)c1n2C	.	-7	1.3	.	.	.	.	0.69	7%
Cc1ccc(N2CCN(C(=O)N3CCOCC3)CC2)cc1C	i	?	-1.8	10	13	-3.7	-0.1	0.69	.
CCCCCCCCCCCCCCCC[n+]1ccccc1	i	.	7.8&12&11	-63	-77	-21	-3.4&3.7&-7.1	0.057*	-8%
CC1CN(C(=O)c2cccc(Oc3ccccc3)c2)CC(C)O1 (centres undefined)	i	-3	0.6	1	1	3.4	-1.0	0.65	-6%
Cc1cc(=O)[nH]c(N/N=C/CCc2ccccc2)n1	i	7	-5.4	-27*	-17*	-2.5*	-3.0	.	-11%
CCC(C)N1C(=O)c2ccccc2C1C(=O)NC1CCCCCC1 (centres undefined)	.	27	-0.1	.	.	.	.	0.62	-1%
COc1cccc(NC(=O)CN(C)C(=O)c2cc(CN3C(=O)c4ccccc4C3=O)ccc2OC)c1	i	.	-3.5	-4	-12	-0.5	-12	0.67	.
CCOC(=O)c1cc(NC(=O)Nc2ccccc2OC)c(C)nc1C	.	-16	0.9	.	.	.	.	0.69	2%
CCS(=O)(=O)N1CCC2(CC1)CN(Cc1ccc3c(c1)OCO3)[C@H](CO)c1c2c2ccc(OC)cc2n1C	i	.	.	-4	-2	3.1	9.6	.	.
O=c1[nH]nnc2sc3c(c12)CCCC3	.	32	1.4	.	.	.	.	0.71	?
CC1CCN(Cc2c(C#N)c3ccccc3n2C)CC1	.	-8	9.9	.	.	.	.	0.68	-11%
COc1ccc(/C=N\Nc2ccc([N+](=O)[O-])cc2)c(C(=O)O)c1OC	i	98*	1.4	3	2	-5.2	-4.7	.	-7%
CC1CCC(C(=O)NC(C(=O)NCCCN2CCOCC2)C(C)C)CC1 (centres undefined)	.	-4	-1.6	-1	9	10	.	0.69	4%
CCC(=O)NC(=S)Nc1cccc(NC(=O)c2ccccc2C)c1	.	8	3.3	-9	-15	-1.8	-2.2	0.67	4%
COc1ccc(S(=O)(=O)N(C)C[C@@H]2Oc3ccc(NC(=O)Nc4cccc5ccccc45)cc3CC(=O)N([C@H](C)CO)C[C@@H]2C)cc1	i	.	.	5	-3	0.5	4.5	.	.
COc1cc(/C=C/C(=O)Nc2ccc(C)cc2)cc(OC)c1OC	.	-4	-0.4	.	.	.	.	0.71	0%
OCCNCCNCc1ccc(-c2ccccc2)cc1	i	-7	.	18	-1	-4.7	2.3	0.68	2%
C[C@@H]1CCCCO[C@H](CN(C)C(=O)Nc2ccc(F)cc2)[C@@H](C)CN([C@H](C)CO)C(=O)c2cc(NC(=O)c3ccccc3)ccc2O1	i	.	6.5	0&-7	-2&0	-1.3&2.1	-0.6&-0.4	.	.
O=C1CCN2C=Nc3cccc4ccc1c2c34	.	68	-81	.	.	.	.	0.67	30%
Cc1ccc(C(=O)Nc2ccc(O)c(C(=O)O)c2)o1	.	-87	3.1	10	7	0.7	.	0.73	3.9µM*
CCCc1cc(=O)[nH]c(N2CCN(Cc3ccc4c(c3)OCO4)CC2)n1	i	-3	1.3	14	7	1.0	-0.1	0.67	-5%
CCOc1nc(NC(C)C)nc(NC(C)C)n1	.	.	-0.3	.	.	.	.	0.72	17%
C[C@H](CO)N1C[C@H](C)[C@@H](CN(C)C(=O)Nc2ccccc2)Oc2ccc(NC(=O)Nc3ccccc3)cc2C1=O	i	-1	-0.6	-2&7	6&5	-4.3&11	-0.8&0.5	0.71	-4%
[O-]/C(=C(\C(=S)Nc1ccc(SC(F)F)cc1)[n+]1ccccc1)c1ccc(Cl)cc1Cl	i	-13	2.4	-15	-17	-1.1	7.4	0.73	-10%
CC1(C)CC(=O)C2=C(C1)OC(N)=C(C#N)C2c1ccccc1[N+](=O)[O-] (centres undefined)	i	11	-67	14	6	-6.9	-2.9	0.69	.
CCN1C[C@@H]2[C@@H]3C(=O)N(Cc4ccccc4)C(=O)[C@@H]3[C@](CC)(C1=O)N2C(=O)c1ccc(F)cc1	i	.	-2.3	3	3	-2.1	-1.5	.	.
CCC(C)[C@H]1CNC(=O)C(=O)N1CCCCC1CCCCC1 (some centres undefined)	i	.	3.5	.	.	.	-1.8	.	.
CN1/C(=C/C(=S)NC(=O)C2(C)CC2(Cl)Cl)C(C)(C)c2ccccc21 (centres undefined)	i	-3	15	-36	-56	37	?	0.65	29%
C[C@@H]1CN([C@@H](C)CO)S(=O)(=O)c2ccc(C#CC3CC3)cc2O[C@@H]1CN(C)C(=O)CC1CC1	i	.	.	-4	-3	-1.9	0.2	.	.
CC1CCCC(C)N1S(=O)(=O)c1ccc(S(=O)(=O)NCc2ccccc2)cc1 (centres undefined)	i	-8	-2.4	12	16	-0.3	1.5	0.66	11%
COc1ccccc1NC(=O)N1CCCC1C(=O)NCc1cccs1 (centres undefined)	i	3	3.6	0	4	-3.5	-2.7	0.64	.
Cc1ccc(-c2csc(-c3ccncc3)n2)cc1	i	-8	-0.1	-12	-7	-13	-0.9	0.68	-3%
C=CCN1C(=O)C(O)=C(C(C)=O)C1c1ccccc1F (centres undefined)	.	-6	3.1	.	.	.	.	0.71	12%
O=C(CCN1C(=O)COc2ccccc21)NCCC1=CCCCC1	.	-2	-3.9	.	.	.	.	0.69	0%
COc1cccc(C(=O)NCC(c2ccc3c(c2)OCO3)N2CCN(c3ccc(F)cc3)CC2)c1 (centres undefined)	i	6	9.3	-12	-20	1.2	0.9	0.7	-2%
Cc1ccc(CNC(=O)C(N=C2NS(=O)(=O)c3ccccc32)C(C)C)cc1 (centres undefined)	i	-1	2.8	-1	6	2.3	0.1	0.7	.
C[C@@H]1CN([C@H](C)CO)C(=O)Cc2cc(NC(=O)CCC(F)(F)F)ccc2O[C@H]1CN(C)Cc1ccc(C(=O)O)cc1	i	.	.	3	10	-1.8	-3.0	.	.
CCC(=O)NC(=S)Nc1ccccc1C(=O)OC	.	44	6.0	.	.	.	.	0.71	.
CN1CCN(S(=O)(=O)c2ccc(SCCOc3ccccc3)nc2)CC1	.	.	0.0	.	.	.	.	0.69	5%
CC12CCC(C(=O)N(c3nccs3)C1=O)C2(C)C (centres undefined)	i	.	-2.3	-1	5	-3.1	-1.5	0.68	2%
Cc1ccc(-c2nc3c(=O)n(C)c4ccccc4c3o2)cc1	.	14	6.2	.	.	.	.	0.73	-6%
CCN(CC)C(=O)/C(=C\c1cccc([N+](=O)[O-])c1)NC(=O)c1ccco1	.	-1	-2.1	.	.	.	.	0.65	10%
C=CCNC(=O)c1ccc(-c2cccc([N+](=O)[O-])c2)o1	.	-2	1.1	10	7	0.8	0.7	0.7	2%
CCCN1C(=O)C(=O)N(CC(=O)N2c3ccccc3NC(=O)CC2C)C1=O (centres undefined)	i	.	3.4	8	19	-2.1	1.2	.	0%
O=C(CN1CCN(CCN2C(=O)c3cccc4cccc(c34)C2=O)CC1)c1ccc(F)cc1	.	1	-3.7	.	.	.	.	0.75	10%
Cc1ccc(S(=O)(=O)N2CCCCC2)cc1NC(=O)c1ccccc1Cl	i	-2	-2.4	-13	-24	-6.4	-1.4	.	.
COc1ccccc1NC(=O)CSc1nnc(C)n1CCc1ccccc1	.	.	-2.2	.	.	.	.	0.67	65%
O=C(C[C@@H]1CC[C@@H]2[C@H](COC[C@@H](O)CN2Cc2cccc(-c3ccncc3)c2)O1)N1CCCCC1	i	.	.	-6	-12	1.7	1.3	.	.
CCCOC(=O)c1ccc(NC(=O)CN(C)Cc2cccs2)cc1	i	.	2.4	-13	-17	-1.4	-0.8	0.68	.
O=C(COC(=O)c1cccs1)c1ccc2c(c1)OCCO2	i	-1	-2.5	-21	-4	-1.6	-5.1	0.74	22%
Cc1ccc(N)c([N+](=O)[O-])c1	i	22	-0.4	-1	-3	-0.4	.	0.67	.
CCc1ccc(S(=O)(=O)NCc2csc(-c3cccnc3)n2)s1	i	-12	1.8	2	-12	-7.0	-6.9	0.78	17%
COc1ccc(C(=O)C(c2ccccc2)N2CCOCC2)cc1 (centres undefined)	.	2	-4.2	.	.	.	.	0.76	-6%
C[C@H](CO)N1C[C@H](C)[C@H](CN(C)C(=O)C2CCCCC2)OCCCC[C@H](C)Oc2ccc(NC(=O)Nc3cccc4ccccc34)cc2C1=O	i	.	.	4	-3	1.4	-0.6	.	.
O=C(O)C1CC(=O)N(Cc2ccccc2)C1 (centres undefined)	.	-8	-2.8	.	.	.	.	0.67	-4%
O=C1CCC(=O)N1OCCOc1ccccc1	i	-4	-0.8	9	3	-1.9	-1.2	0.69	-5%
CCN(Cc1ccncc1)C(=S)NCc1ccccc1	i	30	-3.2	7	-5	-2.0	-2.3	0.7	16%
CCCNC(=O)CS(=O)(=O)Cc1nc(-c2ccccc2C)oc1C	i	-20	-0.1	1	0	10	-3.7	0.77	5%
O=C(c1cnccn1)N1CC[C@@H]2[C@@H](CO)Nc3ccc(C#Cc4cccnc4)cc3[C@@H]21	i	.	.	5	6	-0.4	-3.8	.	.
N#Cc1sc2nc3c(c(-c4cccnc4)c2c1N)CCC3	.	-10	2.3	-19	-26	-6.4	.	0.67	5%

Already shown: entries from further up.
SMILES	FGF22 binding	ALR H2O2 inh	HNF4A DNA FP	Ecoli rRNA inh	Ecoli rRNA inh OD600	Ecoli rRNA inh RFP	AF4-AF9 inh	Ecoli growth	Vif TR-FRET
CCN(Cc1ccncc1)C(=S)NCc1ccccc1	i	30	-3.2	7	-5	-2.0	-2.3	0.7	16%
CCCNC(=O)CS(=O)(=O)Cc1nc(-c2ccccc2C)oc1C	i	-20	-0.1	1	0	10	-3.7	0.77	5%
O=C(c1cnccn1)N1CC[C@@H]2[C@@H](CO)Nc3ccc(C#Cc4cccnc4)cc3[C@@H]21	i	.	.	5	6	-0.4	-3.8	.	.
N#Cc1sc2nc3c(c(-c4cccnc4)c2c1N)CCC3	.	-10	2.3	-19	-26	-6.4	.	0.67	5%

Other entries:
SMILES	FGF22 binding	ALR H2O2 inh	HNF4A DNA FP	Ecoli rRNA inh	Ecoli rRNA inh OD600	Ecoli rRNA inh RFP	AF4-AF9 inh	Ecoli growth	Vif TR-FRET
C[C@@H]1CCCCO[C@H](CN(C)C(=O)Nc2ccc(F)cc2)[C@@H](C)CN([C@H](C)CO)C(=O)c2cc(NC(=O)Nc3cccc4ccccc34)ccc2O1	i	.	.	1	7	1.1	-1.8	.	.
COc1ccc(S(=O)(=O)Nc2cccc3c2O[C@H](CN(C)S(=O)(=O)c2c(C)noc2C)[C@@H](C)CN([C@@H](C)CO)C3=O)cc1	i	.	.	-1	3	0.4	-1.0	.	.
O=C(NNC(=S)NC(=O)c1ccccc1)c1cccc([N+](=O)[O-])c1	i	98*	0.4	-14	-32	-9.0	2.7	0.61	-3%
CC(C)CN(C(=O)c1cccs1)C1CCS(=O)(=O)C1 (centres undefined)	i	.	4.7	9	13	-0.3	-0.9	0.66	-9%
Cc1noc(C)c1COc1ccccc1C(=O)N1CCN(S(=O)(=O)c2ccccc2Br)CC1	i	.	2.6	3	6	4.4	1.9	0.69	.
CCC(=O)N1CCCCN2[C@H](CO)[C@H](c3ccc(C#Cc4cccnc4)cc3)[C@H]2C1	i	.	.	-2	14	-2.1	-2.9	.	.
O=C(NCc1cccs1)c1csc([C@H]2C[C@H](O)[C@@H](CO)O2)n1	i	.	4.0	2	-2	2.3	-0.6	.	.
